# Compound activity deposited in PubChem BioAssay by Southern Research Specialized Biocontainment Screening Center.
# Mtb bLac sens – beta-lactam sensitization of Mtb H37Rv | inhibition, % at 25 µM | 0.27% of 330,000 active | M. tuberculosis H37Rv growth with meropenem, percent inhibition; hits of this screen are not shown here | AID 434955;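 active = about 74% or more and at least 40 points above the plate without the antibiotic, then above 30% in a dose series; inconclusive = first-round hits that could not be retested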;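 note: growth measured after seven days incubation then overnight dye step; 0% = bacteria only wells and 100% = bacteria with antibiotic; twin plates without the antibiotic show which effects depend on it; some results filed as inactive read as strong as hits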
# Active calls of the source: *; ? = inconclusive. An excerpt; rates above refer to the full screens.
structure | Mtb bLac sens
COc1ccc(C(=O)NCC(=O)OCC(=O)NCc2ccc3c(c2)OCO3)cc1 | -10.2
Cc1ccccc1OCC(=O)N/N=C1\CC(=O)CC(C)(C)C1 | -2.8
CCOc1ccc(C=NNC(=O)c2ccc(-n3cnnn3)cc2)cc1 | 2.3
COc1ccc(C(=O)N(C)Cc2ccccn2)cc1OC1CCN(C(C)C)CC1 | ?
CCCCN(C(=O)c1c(C)noc1C)c1c(N)n(CCC)c(=O)[nH]c1=O | -5.2
O=C(Nc1ccc(S(=O)(=O)Nc2ncccn2)cc1)C(F)(F)F | 1.1
CC(OC(=O)Cn1cc(C(F)(F)F)ccc1=O)C(=O)N(C)c1ccccc1 (centres undefined) | -8.1
COC(=O)/C=C1\SC(=NC(=O)c2ccc(-c3ccccc3)cc2)NC1=O | 78.0
CCN(C[C@H]1N[C@@](Cc2ccccc2)(C(=O)OC)[C@H]2C(=O)N(Cc3ccccc3)C(=O)[C@@H]12)C(=O)COC | -2.2
O=c1[nH]cnc2c1ncn2[C@@H]1O[C@H](COS(=O)(=O)O)[C@@H](O)[C@H]1O | -9.1
CC[C@]12c3[nH]c4ccccc4c3CCN1C(=O)C(CC(=O)NCC13CC4CC(CC(C4)C1)C3)C[C@@H]2C(=O)N1CCN(C(=O)C2CC2)CC1 (some centres undefined) | 64.4
O=C(CN1CCCc2ccccc21)Nc1cc(S(=O)(=O)N2CCCC2)ccc1Cl | -4.0
O=C1CN(S(=O)(=O)c2ccc(F)cc2)c2ccccc2N1 | -10.2
CC1CCCC(NC(=O)COC(=O)Cc2ccc(Cl)cc2)C1C (centres undefined) | 1.7
Cc1ccc(C(=O)OCC(=O)NC2CCCCC2)cc1S(=O)(=O)N1CCCCC1 | -1.9
O=C(COC(=O)c1ccc([N+](=O)[O-])o1)Nc1ccc(Br)cc1F | 85.8
CCCc1cc(=O)[nH]c(SCC(=O)c2c(N)n(C3CC3)c(=O)[nH]c2=O)n1 | -7.8
Cc1ccc2oc(=O)c(-c3ccc(O)cc3)c(C)c2c1 | 14.0
COc1ccc(NC(=O)c2ccc3c(c2)OCO3)cc1 | -7.0
Cc1nc(COc2ccc(C(=O)NCc3ccccc3CN3CCCCC3)cc2)cs1 | 1.4
CC1(c2ccc3c(c2)OCCO3)NC(=O)N(CC(=O)c2ccc[nH]2)C1=O (centres undefined) | -10.7
O=C(Nc1ccccc1Cl)NC1(C(=O)N2CCOCC2)CCCCC1 | -0.8
O=S(=O)(c1ccc(F)cc1)N1CCCC(c2nc(-c3ccc(F)cc3)no2)C1 (centres undefined) | 6.4
O=C(NN=Cc1c(F)c(F)c(F)c(F)c1F)c1ccc(NS(=O)(=O)c2cccs2)cc1 | 2.0
CC(c1nnc(SCC(=O)c2c(N)n(C3CC3)c(=O)[nH]c2=O)n1-c1ccc(F)cc1)N(C)C (centres undefined) | 8.3
COc1ccc(S(=O)(=O)NCc2cccnc2)cc1NC(=O)c1ccccc1 | -4.3
Cc1ccc(NC(=O)NC(=O)CN2CCC(C(N)=O)CC2)c(C)c1 | -5.0
CC[C@@]1(C(=O)OC)N[C@H](CN(C)C(=O)Nc2ccc(C)cc2)[C@@H]2C(=O)N(C)C(=O)[C@@H]21 | 0.1
O=C(Cn1ccc(NC(=O)OCc2ccccc2)nc1=O)NCc1ccc2[nH]ccc2c1 | -1.9
O=C(COC(=O)C1CC1)NC(=O)c1ccccc1 | 6.2

# Two of the compounds above, field by field:
Cc1ccc(C(=O)OCC(=O)NC2CCCCC2)cc1S(=O)(=O)N1CCCCC1
  Mtb bLac sens = -1.9
O=C(COC(=O)c1ccc([N+](=O)[O-])o1)Nc1ccc(Br)cc1F
  Mtb bLac sens = 85.8

# Next section
structure | Mtb bLac sens
CCC(C)(C)C1CCc2[nH]nc(C(=O)NCc3ccccn3)c2C1 (centres undefined) | 21.4
CCCCN(C(=O)COC(=O)c1nc2nc(C)cc(C)n2n1)C1CCS(=O)(=O)C1 (centres undefined) | 2.4
O=C(COc1ccccc1)OCC(=O)c1ccc(O)cc1O | 0.8
c1ccc([C@H]2CNCCN2CCc2cccc3ccccc23)cc1 | 47.4
CC(C)NS(=O)(=O)c1ccc(NC(=O)C(C)OC(=O)CCC(=O)c2cccs2)cc1 (centres undefined) | -3.1
COc1ccc(NC(=O)COC(=O)C2CCN(C(=O)c3ccc(Cl)cc3)CC2)c([N+](=O)[O-])c1 | 22.3
C=CC[C@]12CCc3sccc3C1N(c1ccc(C(=O)OCC)cc1)C2=O (some centres undefined) | 5.3
O=C1CCC(C(=O)N2CCC(O)CC2)CN1CCc1ccc(Cl)cc1 (centres undefined) | -7.1
COc1cc(OC)cc(-c2c(C#Cc3ccsc3)c3cc(-c4ccc(OC)c(OC)c4)ccc3n2C)c1 | -5.9
CC(C)CCNC(=O)C1CCN(Cc2cccc(OCc3ccccc3)c2)CC1 | 1.3
C[C@H](C[C@H](O)[C@H]1OC1(C)C)C1=C2C[C@H](O)C3[C@@]4(C)CCC(=O)C(C)(C)C4CC[C@]3(C)[C@@]2(C)CC1 (some centres undefined) | 0.5
Cc1ccc(C(=O)COC(=O)CNC(=O)c2ccccc2)s1 | -5.9
Cc1ccc(N2C(=O)CC(N3CCN(c4ccc(F)cc4)CC3)C2=O)c(C)c1 (centres undefined) | -13.5
CC(C)CNC(=O)CSc1ccc(S(=O)(=O)N2CCN(C)CC2)cn1 | 0.0
CCc1ccccc1OCC(=O)NNCC(=O)Nc1cccc(C#N)c1 | -6.9
O=C(CCc1ccccc1Cl)Nc1cc2c(cc1C(=O)O)OCCCO2 | 1.2
c1ccc(NC2=NCCN2CCCC2CCCCC2)cc1 | -1.4
Cc1cc(C)c(C)c(S(=O)(=O)Nc2ccccc2C(=O)NN2CCOCC2)c1C | 4.8
CCN(CC(=O)Nc1ccc(NC(C)=O)cc1)C(=O)c1sc2nc3n(c(=O)c2c1C)CCC3 | -8.7
COC(=O)c1c(C)[nH]c(C(=O)COC(=O)CCNS(=O)(=O)c2cccc(C(F)(F)F)c2)c1C | 0.3
Cc1ccc(C(=O)NC(C(=O)OCc2cn3cc(Cl)ccc3n2)C(C)C)cc1 (centres undefined) | 2.3
Clc1ccc(C(c2ccc(Cl)cc2)n2cc[n+](CC(OCc3ccc(Cl)cc3Cl)c3ccc(Cl)cc3Cl)c2)cc1 (centres undefined) | 100.1
O=C(CSc1nnc2ccccn12)Nc1ccccc1Cl | 3.3
CC(Oc1ccc2ccc(=O)oc2c1)C(=O)NC(Cc1c[nH]c2ccc(O)cc12)C(=O)O (centres undefined) | -9.9
CC(NC(=O)CNC(=O)c1cccs1)c1cccc(C(F)(F)F)c1 (centres undefined) | -3.4
Cc1c(C(=O)N(C)Cc2nc3ccccc3c(=O)[nH]2)oc2ccccc12 | -12.0
Cc1sc2ncnc(NS(=O)(=O)c3ccc(Cl)cc3)c2c1C | -1.2
CC1(C)O[C@@H]2[C@H](O1)[C@@H](CO)O[C@H]2n1cnc2c(=O)[nH]cnc21 | 9.4
Cc1sc2nc(CSCC(=O)NC3CCCCC3)[nH]c(=O)c2c1C | -3.1
Cc1nc(SCC(=O)c2c(N)n(C3CC3)c(=O)[nH]c2=O)[nH]c(=O)c1CCO | 2.6
CC1(C)CC(=O)C=C(c2ccc(F)cc2OCc2ccccc2)C1 | 12.5
Cc1ccc(S(=O)(=O)N2CCN(c3ccccc3)CC2)c(C)c1 | -15.1
O=C(/C=C/c1cccc(F)c1)Nc1ccc(S(=O)(=O)N2CCOCC2)cc1 | 1.7
COc1ccc(NC(=O)c2c(F)cccc2Cl)cc1S(=O)(=O)N1CCOCC1 | -1.9
Oc1ccccc1Cl | -6.7
CCN(C(=O)COC(=O)/C=C/c1cccc(Cl)c1)c1c(N)n(Cc2ccccc2)c(=O)[nH]c1=O | -1.5
O=C(O)CC(CC(=O)O)c1ccsc1 | 2.9
O=C1OC(CN2CCOCC2)CN1N=Cc1ccc([N+](=O)[O-])o1 (centres undefined) | 5.9
C[C@@H]1C(=O)O[C@H](C)[C@H]1C[C@@H](O)[C@](C)(O)C1CC[C@@]2(O)C3=CC(=O)[C@@H]4C[C@@H](O)[C@@H](O)C[C@]4(C)C3CC[C@]12C (some centres undefined) | 4.3
Cc1ccc(NC(=O)CSCC(=O)Nc2cccc(S(=O)(=O)N3CCCCCC3)c2)cc1 | 3.6
Cc1cc(C(=O)COC(=O)c2n[nH]c(=O)c3ccccc23)c(C)n1C | -1.8
COc1ccccc1/C(C)=N/Oc1cc(N)cc([N+](=O)[O-])c1 | 12.8
CCOC(=O)Cc1csc(SCC(=O)Nc2oc(C)c3c(C)n[nH]c(=O)c23)n1 | 1.9
Cc1ccc(S(=O)(=O)N2[C@@H](c3ccc(Cl)cc3)C(C(=O)O)=C[C@H]2CC2CCCC2)cc1 | 6.4
CCN1CCN(C(=O)C(C)Sc2nc3nc(C)cc(C)n3n2)CC1 (centres undefined) | -0.4
Cc1noc(C)c1C(=O)Nc1ccc(S(=O)(=O)N2CCC(C)CC2)cc1 | -4.8
CCN(CC)C(=O)c1[nH]cnc1C(=O)Nc1ccon1 | 4.8
COc1ccc(C[C@H](N)C(=O)N[C@H]2[C@@H](O)[C@H](n3cnc4c(N(C)C)ncnc43)O[C@@H]2CO)cc1 | 99.9
Cc1nnc(NC(=O)c2cc(S(=O)(=O)N(C)C)ccc2N2CCCC2)s1 | -8.5
C[C@H](NC(=O)c1[nH]cnc1C(=O)Nc1ccon1)c1ccccc1 | 28.1
C[C@]12CC[C@H](O)CC1C(=O)CC1C2CC[C@@]2(C)C1CC[C@@H]2O (some centres undefined) | -2.7
C/C(=C\COc1ccc2ccc(=O)oc2c1)CC[C@@H](O)C(C)(C)O | 0.0
O=C(CNC(=O)c1ccc(F)cc1)NCc1ccccn1 | -0.3
Cc1ccc(Cn2nc(C)c(C(=O)N3CCN(S(=O)(=O)/C=C/c4ccccc4)CC3)c2C)cc1 | 3.4
C[C@H](CO)N1C[C@H](C)[C@@H](CN(C)C(=O)Nc2ccccc2)Oc2c(NC(=O)Nc3ccc(C(F)(F)F)cc3)cccc2C1=O | 7.8
CC(NC(=O)COC(=O)C1CCN(c2ccc(C(F)(F)F)cn2)CC1)c1ccc(F)cc1 (centres undefined) | -2.3
COc1cccc(C(=O)Nc2cc(C(=O)NCc3ccc(C)cc3)ccc2N2CCC3(CC2)CC(c2cccc(Br)c2)=NO3)c1 | -1.1
O=C(CCNS(=O)(=O)c1ccc(Br)cc1)NNC(=O)C1COc2ccccc2O1 (centres undefined) | -0.3
COc1cccc(-c2sc3ccc(OC)cc3c2C#CC2(O)CCCCC2)c1 | 71.7
Cc1cccc(NC(=O)COC(=O)CN2CCCCCC2=O)c1C | 0.5

# (list continues)
structure | Mtb bLac sens
COc1ccc(C(=O)N2CCN(c3cccc(Cl)c3)CC2)cc1S(=O)(=O)NC1CC1 | 8.0
COCc1ccc(-c2c(-c3ccc(OC)cc3)oc(=O)c3cc(OC)c(OC)cc23)cc1 | 7.4
O=C(Nc1ccc(Cl)c(S(=O)(=O)N2CCOCC2)c1)[C@@H]1CCCN1C(=O)c1cccs1 | -0.6
O=C(C[C@H]1C/C=C/CC[C@@H](Cc2ccc(F)cc2)C(=O)OC[C@H](c2ccccc2)NC1=O)NCCO | 0.2
C[C@@H]1CN([C@H](C)CO)C(=O)Cc2cc(NC(=O)Nc3ccccc3)ccc2O[C@@H]1CN(C)Cc1ccc2c(c1)OCO2 | 2.8
COc1ccc(N(C(=O)c2snc(C(N)=O)c2N)C(CC(C)C)C(=O)NCC2CCCO2)cc1 (centres undefined) | -6.0
COc1ccc(C(=O)NC23CC4CC(CC(C4)C2)C3)cc1OC | 1.9
CCN(CC)S(=O)(=O)c1ccc(N2CC(C(=O)N3CCOCC3)CC2=O)cc1 (centres undefined) | 5.2
COc1ccc(NC(=O)C2CC(c3ccc(Cl)cc3)=NO2)cc1OC (centres undefined) | -7.2
O=C(NCc1cccc(C(F)(F)F)c1)c1cccc2c1C(=O)c1ccc(N3CCC(Cc4ccccc4)CC3)cc1S2(=O)=O | 4.4
Cc1cc(C(=O)NNC(=O)c2ccc(Cl)cc2)c2ccccc2n1 | -1.4
Cc1ccc(C(=O)CCC(=O)OC(C)C(=O)NC2CCCCC2C)cc1 (centres undefined) | 0.2
NS(=O)(=O)c1cc(Cl)c(Cl)c(S(N)(=O)=O)c1 | -11.8
NC(N)=S | -6.5
O=C(CN1CCN(C(=O)c2ccco2)CC1)Nc1cccc(S(=O)(=O)N2CCCC2)c1 | -8.7
COc1ccc(C2(C)CC(C)(C)Nc3ccccc32)cc1 (centres undefined) | -2.4
Cc1cccc(C)c1NC(=O)CNC(=O)c1ccc(N2CCCC2=O)cc1 | -4.8
COc1cc(OC)cc(C(=O)N[C@H](C(=O)NC2CCCc3ccccc32)C(C)C)c1 (some centres undefined) | -8.6
CSCCC(NC(=O)COc1ccccc1)C(=O)N1CC(C)CC(C)C1 (centres undefined) | -5.5
CCCNC(=O)C(Cc1ccccc1C)NC(=O)c1ccc(C#N)cc1 (centres undefined) | 8.1
O=C(c1ccc2nc(Cc3cccc(Cl)c3)oc2c1)N1CCOCC1 | ?
O=C(CSc1ccc(Br)cc1)NC1CCCCCC1 | 0.2
CCc1ccccc1NC(=O)CNC(=O)c1n[nH]c(=O)c2ccccc12 | -6.1
Cc1ccccc1S(=O)(=O)N1[C@@H](c2ccc(Cl)cc2)C(C(=O)O)=CC[C@H]1c1ccc(Cl)cc1 | 4.8
O=Cc1cc(-c2ccccc2)[nH]c1-c1ccccc1 | -3.0
COc1ccc(C(CNC(=O)c2cc3c(s2)CCC(C)C3)N2CCCC2)cc1 (centres undefined) | 19.0

# Individual results from the results shown:
# Reading of O=C(NCc1cccc(C(F)(F)F)c1)c1cccc2c1C(=O)c1ccc(N3CCC(Cc4ccccc4)CC3)cc1S2(=O)=O under Mtb bLac sens: 4.4
# Reading of COc1ccc(C(=O)N2CCN(c3cccc(Cl)c3)CC2)cc1S(=O)(=O)NC1CC1 under Mtb bLac sens: 8.0
# Reading of O=C(CSc1ccc(Br)cc1)NC1CCCCCC1 under Mtb bLac sens: 0.2
# Reading of CCN(CC)S(=O)(=O)c1ccc(N2CC(C(=O)N3CCOCC3)CC2=O)cc1 (centres undefined) under Mtb bLac sens: 5.2
